From PubChem BioAssay
ClpP mod: qHTS Assay for Activators of ClpP | ATP-dependent Clp protease proteolytic subunit (Bacillus subtilis (strain 168)), P80244 | purified B. subtilis ClpP, FRET peptide cleavage, 20 min | Potency, µM (titrated, usually from 57.5 µM), without a hit: at the highest dose activity change, negative = active | 1.9% of 340,000 active | AID 651965, 2013; active = well fitted falling curve with a large enough effect; inconclusive = small, poorly fitted or top-dose-only effect; inactive = no such curve, though single readings can be large or run the other way; further: potency means the concentration at half of the fitted maximal effect; the source files actives as falling curves though it sought activators and does not explain the sign; nearly all actives have a fitted effect of over 65% in size; many hits overshoot -100%
Target sequence (P80244 whole entry, looked up): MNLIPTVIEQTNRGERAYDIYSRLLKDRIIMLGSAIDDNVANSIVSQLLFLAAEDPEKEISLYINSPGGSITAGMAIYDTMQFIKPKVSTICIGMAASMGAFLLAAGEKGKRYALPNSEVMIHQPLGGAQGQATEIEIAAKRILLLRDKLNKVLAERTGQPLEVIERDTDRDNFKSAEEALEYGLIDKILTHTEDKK
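FRET quenching reversal measured ClpP activation: 10 microg/mL B. subtilis ClpP at pH 8 with the FRET-FV decapeptide, read at 430 nm after 320 nm excitation. The 20-min minus 0-min signal was scaled between DMSO/no-enzyme wells and ADEP (5.8 microM final).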
TRPML1 blocker: blocks the human TRPML1 channel; Q9GZU1; TRPML1-inducible cells, Ca2+ dye fluorescence, FDSS; active compounds read low; inhibition of EC80 agonist-evoked calcium signal; activity change, negative = inhibition, % (no concentration beside the values); 0.02% of 390,000 active; in the data active means activity change below about -50%; inconclusive means about -30% to -50%; inactive means above about -30%;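 further: stimulus is agonist 54-4 at its EC80 concentration; on the % scale 0 is the no-effect control and ±100 the full control effect; compound concentration not given in the record; the text of the record puts the active cut at -80%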
Target sequence (Q9GZU1 whole entry, looked up): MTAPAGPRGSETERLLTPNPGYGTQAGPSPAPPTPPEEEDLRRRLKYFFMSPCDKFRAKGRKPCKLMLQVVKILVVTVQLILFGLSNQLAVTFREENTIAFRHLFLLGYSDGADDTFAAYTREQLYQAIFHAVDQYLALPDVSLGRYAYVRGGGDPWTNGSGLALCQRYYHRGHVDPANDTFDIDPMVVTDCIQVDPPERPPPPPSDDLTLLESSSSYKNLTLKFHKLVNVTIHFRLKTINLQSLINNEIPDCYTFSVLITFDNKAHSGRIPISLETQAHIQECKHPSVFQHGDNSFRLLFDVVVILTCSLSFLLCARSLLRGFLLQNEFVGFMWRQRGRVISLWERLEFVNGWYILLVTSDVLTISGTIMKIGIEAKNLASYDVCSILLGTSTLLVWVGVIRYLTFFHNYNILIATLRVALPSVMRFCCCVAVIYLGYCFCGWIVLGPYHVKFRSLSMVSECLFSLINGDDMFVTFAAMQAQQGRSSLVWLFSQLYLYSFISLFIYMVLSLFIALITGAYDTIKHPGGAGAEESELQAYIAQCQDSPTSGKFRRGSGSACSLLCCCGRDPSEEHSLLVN
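Tet-induced TRPML1-DL cells loaded with Ca8 no-wash calcium dye were read kinetically on FDSS. Compound addition was followed by EC80 agonist 54-4 (4 uM final); inhibition was read over 110 s.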
* marks the source's active call; other numbers are inactive results; u = inconclusive. These rows are one share of the data; the hit share may differ from the screen's.

Under each structure – ClpP mod | TRPML1 blocker
COc1cc(NC(=O)CN2C(=O)C(c3ccc(C)cc3)=NC23CCCCC3)cc(OC)c1
→ 0.0% | 30.9
CC(C)CC(=O)NCC(c1ccc2c(c1)OCO2)N1CCN(c2ccccc2)CC1 (stereo not drawn)
→ -0.7% | 0.3
Fc1ccc(-c2noc3ncnc(NCCCN4CCN(c5ccccc5)CC4)c23)cc1
→ -1.3% | 25.9
Cc1cccc(NC(=O)c2cc(CN3CCOCC3)on2)c1C
→ 0.4% | -18.0
Cc1ccc2nc(NC(=O)CSc3cc(C)[nH]c(=O)n3)sc2c1
→ -3.8% | -0.7
CCOC1=C2CN(S(=O)(=O)c3ccc(C)cc3)[C@@H](c3ccccc3)C[C@H]2[C@H]2C(=O)N(c3ccccc3)C(=O)[C@H]2C1
→ -2.3% | -12.4
CCCCOc1cccc(C(=O)N(Cc2sccc2C)C2CCS(=O)(=O)C2)c1 (stereo not drawn)
→ -0.9% | 3.3
Cc1ccccc1CSc1nc2cccnc2n1Cc1ccc(C(=O)NCCc2cccs2)cc1
→ u | -2.2
COc1ccc(N2CCN(C(=O)CCn3c(=O)[nH]c4cc(OC)c(OC)cc4c3=O)CC2)cc1
→ -9.9% | -2.0
CCN1c2ccccc2-c2nc(SCC(=O)NCc3ccc(Cl)cc3)ncc2S1(=O)=O
→ 4.3% | 28.7
C#CC(C)(C)NS(=O)(=O)c1cc(-c2nnc(Nc3ccc(C)cc3)c3ccccc23)ccc1C
→ -19.3% | 15.6
COCCn1c(C)cc(O)c(C(c2ccc(F)cc2)N2CCC(C)CC2)c1=O (stereo not drawn)
→ -1.0% | -2.5
COc1ccc(Cl)cc1NC(=O)N1CCC(CN2CCc3ccccc3C2)CC1
→ -6.3% | 12.3
COc1ccc(Cn2c(C(=O)O)c(CNCc3ccco3)c3ccc(C)cc32)cc1
→ -7.4% | -6.9
Cc1ccc(CCNC(=O)CN(c2ccc(C)cc2)S(=O)(=O)N(C)C)cc1
→ 0.3% | 2.7
CCCCOC(=O)c1c(C)oc2ccc(NS(=O)(=O)c3ccc(F)cc3C)cc12
→ 0.8% | -0.1
Cc1ccc(NC(=O)Cn2cnc3sc(C)c(S(=O)(=O)N4CCN(c5ncccn5)CC4)c3c2=O)cc1F
→ u | -6.3
CCC(=O)Nc1sc2c(c1C(=O)Nc1cccc(C)c1)CCCC2
→ -13.2% | 7.6
CC(=O)c1ccc(N2CCN(c3nc4c(S(=O)(=O)c5ccccc5)nnn4c4ccc(Cl)cc34)CC2)cc1
→ -3.5% | -1.4
Cc1cccc(COc2ccc(-c3cc(C(F)(F)F)n4nc(C)cc4n3)cc2)c1
→ -10.1% | 22.7
Cc1cccc(NC(=O)CSc2cn(CC(=O)N3CCC(C)CC3)c3ccccc23)c1C
→ 0.2% | -3.2
Cc1ccccc1CN1C(=O)C(O)(c2c[nH]c3ccccc23)c2cc(Cl)ccc21 (stereo not drawn)
→ -2.5% | -14.0
CN(C)S(=O)(=O)c1ccc(C(=O)Nc2ccc(-n3nncc3-c3ccccc3)cc2)cc1
→ 0.4% | -0.4
CCOc1ccc(-n2ccnc2SCC(=O)Nc2nc3ccc(C)cc3s2)cc1
→ -3.8% | 11.9
Cc1ccc(-n2ncc3c(N4CCCCC4)ncnc32)cc1Cl
→ 0.4% | 14.5
Cc1cc(C)cc(N2C(=O)CSC23C(=O)N(CC(=O)NCCc2ccccc2)c2ccccc23)c1 (stereo not drawn)
→ -0.3% | 1.1
O=C(OCC1CCCO1)c1ccc2c(c1)N(Cc1ccccc1Cl)C(=O)c1ccccc1S2(=O)=O (stereo not drawn)
→ -5.5% | 21.6
CCOC(=O)Cn1c(=O)n(CC2CCCO2)c2nc(-c3ccc(OC)cc3OC)nc(C(N)=O)c21 (stereo not drawn)
→ -2.4% | -14.7
COc1ccc2c(c1)c1c(c(=O)n(Cc3ccccc3)c(=O)n1Cc1cc(C)ccc1C)n2C
→ u | -8.7
CCCOc1ccc(C(=O)N(Cc2ccc(Cl)cc2)Cc2ccco2)cc1
→ -3.2% | 4.5
Cc1cc(C)c(Cn2c3ccccc3c3cnn(CC(=O)NCc4cccs4)c(=O)c32)c(C)c1
→ -14.8% | 27.2
Cc1ccc(CSc2nc3ccc(NC(=O)COc4ccccc4F)cc3s2)cc1
→ -11.0% | -21.1
Cn1c(=O)c2ccccc2n2c(CCC(=O)N3CCN(c4cccc(Cl)c4)CC3)nnc12
→ -2.4% | 26.1
Cc1ccc(-c2nn(CCC(=O)Nc3ccc(Cl)c(Cl)c3)c(=O)c3ccccc23)cc1
→ u | 1.0
Cc1c(Cl)cccc1-n1c(CCC(=O)O)ccc1-c1cccs1
→ -2.6% | -15.7
CC(CNC(=O)Cn1ncc2c3ccccc3n(Cc3cccc(Cl)c3)c2c1=O)c1ccccc1 (stereo not drawn)
→ 4.7% | -3.7
Cc1cc(C)n2c(Nc3ccc(Cl)cc3)c(-c3ccsc3)nc2n1
→ -4.7% | -4.7
COc1cc(NC(=O)c2nc3ccccc3nc2C)cc(OC)c1OC
→ 1.0% | 6.0
CC(=O)Nc1ccc(NC(=O)c2ccc(-c3ccnn3C)c3ccoc23)cc1
→ -5.6% | 56.8
CC(=O)N1CCc2cc(CNC(=O)c3ccccc3Br)ccc21
→ 2.8% | -4.2
CCc1cccc(C)c1NC(=O)CCCN1C(=O)C(c2ccccc2)Oc2cccnc21 (stereo not drawn)
→ -0.6% | 44.8
COc1ccc(CNC(=O)c2cnc3sc4cc(OC)ccc4n3c2=O)cc1
→ -26.7% | 32.1
CCOc1ccc(-c2cc(C(=O)NCCc3ccc(OC)c(OC)c3)[nH]n2)cc1
→ 2.2% | -1.7
CC(C)c1cnc2c(c1SCC(=O)Nc1cccc(F)c1)c(=O)n(C)c(=O)n2C
→ -0.9% | 24.7
CSc1ncc(Cl)c(C(=O)N(Cc2ccc(C(C)C)cc2)C2CCS(=O)(=O)C2)n1 (stereo not drawn)
→ -3.7% | -8.3
COc1ccc(NCc2cc3cc4c(cc3n(CC(=O)Nc3ccc(F)cc3)c2=O)OCCO4)cc1
→ 15.8% | 6.1
CS(=O)(=O)CC[C@@H](C(=O)NCCc1ccccc1)N1Cc2ccccc2C1=O
→ -0.6% | -20.1
CCOC(=O)CNC(=O)N1CCN(c2nnc(C)c3c(C)n(-c4ccc(Cl)cc4)nc23)CC1
→ -24.8% | 16.7
CCn1c(CN2CCN(c3cccc(Cl)c3)CC2)nc2c1c(=O)[nH]c(=O)n2C
→ -8.5% | 18.6
Cc1ccc2nc(-c3ccc(Cl)c(NC(=O)c4cccc([N+](=O)[O-])c4C)c3)oc2c1
→ 0.5% | -3.6
Cc1cc(C)c(NC(=O)CSc2nncn3c2cc2oc(C)cc23)c(C)c1
→ -1.4% | 10.5
CCOCCCNC(=O)N1CCN(S(=O)(=O)c2ccc3c(ccn3C)c2)CC1
→ -0.7% | 27.0
CSc1cccc(NC(=O)Cn2nc(C)c3sc4ccccc4c3c2=O)c1
→ -1.6% | -1.9
Cc1ccc(C)c(NC(=O)CSc2nnc(NC(=O)Nc3ccccc3)s2)c1
→ -2.3% | 26.9
O=C(O)c1c(CNCc2cccc(F)c2)c2ccccc2n1Cc1ccccc1
→ -24.4% | 13.4
CN(C)c1ccc(NC(=O)C2(c3cccs3)CCOCC2)cc1
→ -2.4% | 9.0
Cc1ccc(CSCC(=O)N2CCN(c3ccccc3F)CC2)cc1
→ -1.8% | 20.2
COc1cc(C(=O)Nc2ccccc2-c2nc(-c3ccc(C)cc3)no2)cc(OC)c1OC
→ -2.5% | 0.3
CCOc1ccc(S(=O)(=O)Nc2ccc3c(c2)c(C(C)=O)c(C)n3S(=O)(=O)c2ccc(OCC)cc2)cc1
→ 3.1% | -18.8
CCc1nn2c(=O)c(S(=O)(=O)Nc3ccc(OC)c(Cl)c3)c(C)nc2s1
→ -0.8% | 7.6

Next part.
Under each structure – ClpP mod | TRPML1 blocker
O=C(Nc1cccc(Cl)c1)c1ccc2nc(Cc3ccccc3)oc2c1
→ u | 42.6
O=C(CN1C(=O)C2(SCC(=O)N2c2ccc(F)c(F)c2)c2ccccc21)Nc1cccc(Cl)c1 (stereo not drawn)
→ -2.0% | -2.3
COc1ccc(-c2nc(SCC(=O)Nc3ccc4c(c3)OCO4)c(-c3ccc(OC)cc3)[nH]2)cc1
→ u | -29.2
Cc1ncc(CO)c2c1Oc1nc(-c3ccc(F)cc3)nc(SCc3ccc(F)cc3Cl)c1C2
→ -3.5% | 24.3
Cc1ccccc1CN1c2ccccc2-c2nc(SCC(N)=O)ncc2S1(=O)=O
→ 3.2% | -17.1
CCS(=O)(=O)N1CCCc2cc(C(=O)Nc3cccc(C(C)=O)c3)ccc21
→ -2.7% | -5.8
CCc1ccc(NC(=O)c2ccc(F)c(S(=O)(=O)N3CCN(c4cc(C)ccc4C)CC3)c2)cc1
→ -10.1% | -22.5
Cc1nc(SCC(=O)Nc2ccc(Cl)cc2C(F)(F)F)[nH]c(=O)c1Cc1ccccc1
→ 0.6% | 16.9
Cc1ccc(-n2c(=O)c3oc4ccccc4c3n(Cc3ccccc3)c2=O)cc1C
→ -19.3% | -14.7
COC(=O)c1ccccc1NC(=O)CN1C(=O)COc2ccc(Cl)cc21
→ -2.8% | -1.3
COc1ccc(CNC(=O)c2cc(Nc3ccc(C)cc3C)nc3ccccc23)cc1
→ -25.0% | 6.8
Cc1cccc(Nc2nc3c(S(=O)(=O)c4ccc(Br)cc4)nnn3c3ccsc23)c1C
→ -5.2% | 12.9
COc1ccc(CNC(=O)CCC2N=C3c4ccccc4N=C(SCc4ccc(F)cc4)N3C2=O)cc1 (stereo not drawn)
→ 4.4% | -3.2
Cc1cccc(OCCn2c(SCC(N)=O)nc3ccccc32)c1
→ 1.9% | 9.5
CCCCOc1ccc(Cn2c(=O)sc3ccccc32)cc1
→ -1.0% | 25.5
CCOc1ccc(OCC)c(Nc2ccc3cc(S(=O)(=O)N4CCCC4)ccc3n2)c1
→ -27.1% | -2.6
COc1ccc(CNC(=O)CCCc2cn(C)c3ccccc23)c(OC)c1
→ u | 3.5
CCOC(=O)c1cccc(NC(=O)NCc2ccc3c(c2)CCN3C(=O)CC)c1
→ 0.4% | -1.5
COc1ccc(C)cc1NC(=O)C(=O)NCCc1csc(-c2ccc(C)cc2)n1
→ -1.7% | 4.5
Cc1cccc(NC(=O)CSc2nc(-c3cccs3)cc(C(F)(F)F)c2C#N)c1
→ -12.6% | 6.0
CCOc1ccc(CNC(=O)CSc2nnc(C)c3c(C)n(-c4ccc(Cl)cc4)nc23)cc1
→ 1.3% | 5.2
COc1ccc(CNC(=O)C2CCCN(C(=O)N3CCOc4ccccc43)C2)cc1 (stereo not drawn)
→ 0.8% | -7.2
CCOC(=O)c1c(C)c(-c2ccccc2)n(CC(=O)Nc2cc(C)ccc2OC)c1C
→ -1.4% | -2.8
COc1ccc(C2CC(c3cccc(OC)c3)=NN2c2ccc(S(N)(=O)=O)cc2)cc1 (stereo not drawn)
→ 4.2% | -21.0
Cc1cccc(-c2noc(-c3cc(C(C)C)[nH]n3)n2)c1
→ -1.9% | 7.9
COc1cc(/C=C/CNC[C@H]2O[C@@H](n3cnc4c(=O)[nH]c(N)nc43)[C@H](O)[C@@H]2O)ccc1O
→ -1.8% | -22.1
O=C(Nc1ccc2nn(-c3ccc(F)cc3)nc2c1)c1cccc2c(Cl)cccc12
→ u | -3.5
Cc1cccc(OCCSc2nc(-c3cccs3)nc3cc(=O)[nH]n23)c1
→ 0.6% | 16.7
CC(=O)Nc1cccc(-c2ccnc3c2CC(C(=O)NCC2CCOCC2)O3)c1 (stereo not drawn)
→ -14.3% | -4.2
Cc1nn(C(C)C(=O)N2CCN(c3ccc(Cl)cc3)CC2)c(=O)c2cc3occc3n12 (stereo not drawn)
→ -6.4% | -8.4
CCC(=O)N1CCc2cc(S(=O)(=O)NC(C(=O)Nc3cc(OC)cc(OC)c3)C(C)C)ccc21 (stereo not drawn)
→ 2.2% | -3.4
CCOc1ccccc1NC(=O)c1sc(-n2nc(C)c(CCC(C)C)c2C)nc1C
→ -2.5% | -16.9
COc1ccccc1-c1cnc(C(O)c2c(C)cc(C)cc2C)[nH]1 (stereo not drawn)
→ -13.4% | 13.6
Cc1ccc(C)c(NC(=O)CSc2nc3nccnc3c(=O)n2CCc2c[nH]c3ccccc23)c1
→ 0.2% | -0.9
CCSc1ncc(Cl)c(C(=O)Nc2ccc(S(=O)(=O)N3CCC(C)CC3)cc2)n1
→ 4.1% | 1.6
Cc1ccc(CNC(=O)c2cn(C)c3ccc(S(=O)(=O)N4CCC(C)CC4)cc3c2=O)cc1
→ -2.7% | 19.9
CC(CNC(=O)c1nnc(Cc2ccc(F)cc2)o1)c1ccccc1 (stereo not drawn)
→ -1.7% | 11.0

Arranged by heavy-atom count (smallest number first): three of the compounds above
Under each structure – ClpP mod | TRPML1 blocker
CC(CNC(=O)c1nnc(Cc2ccc(F)cc2)o1)c1ccccc1 (stereo not drawn)
→ -1.7% | 11.0
CCSc1ncc(Cl)c(C(=O)Nc2ccc(S(=O)(=O)N3CCC(C)CC3)cc2)n1
→ 4.1% | 1.6
Cc1ccc(C)c(NC(=O)CSc2nc3nccnc3c(=O)n2CCc2c[nH]c3ccccc23)c1
→ 0.2% | -0.9
